Bioassay records from PubChem.
GALR2 ag: activates the human galanin receptor 2; AID 803; GALR2-expressing cells, agonist activation read-out; activation, %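 (tested at 5 µM)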; O43603; 140,000 tested, 0.48% active;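 active = above mean plus 3 SD of all compounds, about 5% in these data, not always enough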;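 note: 0% = vehicle buffer wells and 100% = reference agonist at full effect; tested in CHO reporter cells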
INS promoter inh: TRM-6 insulin promoter activity inhibition | TRM-6 cells (human fetal islet line), insulin promoter-eGFP reporter, imaging; reporter expression induced with tamoxifen | inhibition, % at 2 µM | 130,000 tested, 0.9% active | AID 1273;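 active = inhibition above the mean plus 3 SD, with well images judged a real hit on visual review, cut at about 60% in these data, passing the limit was not always enough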
HSV augment: HSV replication enhancement; HSV replication augmentation in cells, fold increase; maximum fold increase; 220,000 tested, 0.005% active; AID 1956;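 active = peak rise of 1.5-fold or more in the series; tested in PC3 cells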;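 note: first round at 10 µM; read as green reporter fluorescence; hits show the peak of a series up to 25 µM; 1 = signal of infected wells without compound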
PKD1 inh: PKD1 (human) kinase inhibition. PKD1 kinase fluorescence polarization assay. inhibition, %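 (about 10 µM by stock and volumes)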. 200,000 tested, 0.056% active;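 active = inhibition of 50% or more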;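 note: controls were vehicle for no effect and a reference inhibitor for full effect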
Target sequence (Q15139 whole entry, looked up): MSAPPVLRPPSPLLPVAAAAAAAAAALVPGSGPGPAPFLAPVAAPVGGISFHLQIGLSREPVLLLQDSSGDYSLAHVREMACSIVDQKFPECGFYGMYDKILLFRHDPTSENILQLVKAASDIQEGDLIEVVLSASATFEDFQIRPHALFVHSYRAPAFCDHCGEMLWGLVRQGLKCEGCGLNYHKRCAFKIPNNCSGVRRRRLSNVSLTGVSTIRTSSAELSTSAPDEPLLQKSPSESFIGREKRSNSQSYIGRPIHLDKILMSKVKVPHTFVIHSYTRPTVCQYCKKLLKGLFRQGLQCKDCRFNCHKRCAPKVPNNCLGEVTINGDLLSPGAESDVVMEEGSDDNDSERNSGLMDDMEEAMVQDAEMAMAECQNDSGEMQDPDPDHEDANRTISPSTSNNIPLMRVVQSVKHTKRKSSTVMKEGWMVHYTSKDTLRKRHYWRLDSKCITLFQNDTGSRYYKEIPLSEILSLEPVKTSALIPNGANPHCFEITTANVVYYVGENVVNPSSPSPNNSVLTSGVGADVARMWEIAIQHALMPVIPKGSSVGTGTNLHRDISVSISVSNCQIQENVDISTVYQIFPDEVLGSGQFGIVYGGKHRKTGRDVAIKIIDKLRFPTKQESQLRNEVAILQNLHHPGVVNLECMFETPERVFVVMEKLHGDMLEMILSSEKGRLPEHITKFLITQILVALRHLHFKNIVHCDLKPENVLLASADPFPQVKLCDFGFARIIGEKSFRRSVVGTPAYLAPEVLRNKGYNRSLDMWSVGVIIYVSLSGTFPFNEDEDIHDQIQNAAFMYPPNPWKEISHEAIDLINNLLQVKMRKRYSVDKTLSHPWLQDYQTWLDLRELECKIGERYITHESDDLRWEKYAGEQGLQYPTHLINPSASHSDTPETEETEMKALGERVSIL
RGS16-Gao HTS: regulators of human RGS16-Galphao interaction; O15492+P09471; bead-based flow cytometry RGS16-Galphao binding, fluorescence; actives lie on both sides; binding response (% of control), % at 10 µM; 220,000 tested, 0.38% active;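 active = below 25% or above 175%, edge rows of some plates excepted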;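 note: Galphao activated by GDP with aluminum fluoride before binding; 100% = wells without compound and 0% = beads without RGS; some results beyond the cut were filed as inactive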
INS promoter inh cell count: also measured in INS promoter inh; calls as there; normalized cell count, %; measured here: cell count, toxicity; reference of the scale not given here;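 cells exposed to compound for 48 h; stained nuclei by imaging scaled within each plate; lower means fewer cells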
HSV augment primary fold: second read-out of HSV augment, no call of its own (marks repeat the call); fold increase; compound at 10 µM; measured here: primary screen fold increase 10 uM; tested in PC3 cells;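 GFP signal in the first replicate; 1 = infected wells without compound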
* hit, by the source's call; i = inactive; nt = not tested or not shown. Not a hit list; any-hit rate near 1.3%.

molecule	GALR2 ag	INS promoter inh	INS promoter inh cell count	HSV augment	HSV augment primary fold	PKD1 inh	RGS16-Gao HTS
S=C(NCCCN1CCOCC1)Nc1cccc(Cl)c1	nt	6	123	i	1.1	-4	102
O=C(Nc1ccc2ccccc2c1)c1cccnc1	-1.3	-35	81	i	0.78	-5	107
Cc1cc(/C=N/NC(=O)c2ccncc2)c(C)n1-c1ccccc1	-0.9	14	34	i	0.81	-18	120
COc1ccc(CC(=O)N2N=C(C)CC2(O)C(F)(F)F)cc1 (configuration not stated)	0.5	nt	nt	i	0.92	-13	131
O=C(NCc1ccccc1)c1cc2ccccc2o1	0.5	71	159	i	0.88	7	106
OCC#CCSc1nnc(-c2ccc(Br)cc2)o1	-2.6	0	139	i	0.93	-5	105
O=C(Nc1ccc(Cl)cc1C(F)(F)F)C(Sc1cccc[n+]1[O-])c1ccccc1 (configuration not stated)	nt	-29	155	i	0.94	-2	97
C=CCn1c(O)c(N=NC(=O)OCC)c2ccccc21	-0.5	-13	248	i	0.89	2	107
COc1ccccc1NC(=O)Cc1noc(CSc2nnc(N)s2)n1	-2.8	-31	110	i	0.91	2	104
Cn1c(=O)c(=O)n(C)c2cc(S(=O)(=O)NCc3ccc(Cl)cc3)ccc21	nt	nt	nt	i	1	-1	109
CCOC(=O)C1CCCN(C(=O)c2sc3nc(C)nc(N(CC)CC)c3c2C)C1 (configuration not stated)	-3.5	0	69	i	0.62	3	103
CC1CCN(S(=O)(=O)c2ccc(S(=O)(=O)N3CCC4(CC3)OCCO4)cc2)CC1	-0.2	nt	nt	i	0.99	-5	122
O=C(Cn1nc(-c2ccccc2)c2ccccc2c1=O)NN1CCOCC1	nt	nt	nt	i	0.99	nt	98
Cc1ccc(CNC(=O)CCNC(=O)Cn2ccc3ccccc3c2=O)o1	-2.3	nt	nt	i	0.76	-8	94
Nc1nc2c(s1)C(=O)CC(c1ccccc1)C2 (configuration not stated)	-1.2	-17	94	i	0.99	-1	86
CCOC(=O)Cn1nc(Cc2ccccc2)c2ccccc2c1=O	-1.9	9	87	i	0.81	-6	116
Cc1nnc(Sc2c(N)n(C)c(=O)[nH]c2=O)s1	-0.1	-16	196	i	0.9	-18	102
COc1cc(/C=C/C(=O)NCc2nc3ccccc3[nH]2)cc(OC)c1OC	nt	nt	nt	i	0.97	nt	98
CCOc1ccc(NC(=O)C2C3C=CC4(CN(C(C(=O)OC)C(C)C)C(=O)C24)O3)cc1 (configuration not stated)	0.8	-15	118	nt	nt	-1	101
O=c1cc(O)c2c(=O)n(Cc3ccccc3)c3ccccc3c2o1	nt	33	99	i	1	-2	98
COc1ccccc1CNC(=O)c1ccc(-c2ccccc2Cl)o1	-2.1	-59	35	i	0.9	-5	104
O=C1CN(S(=O)(=O)c2ccccc2)CC(=O)N1CCc1ccccc1	-4.2	0	179	i	0.88	-14	101
Cc1ccc(-c2noc(CCC(=O)N3CCCc4ccccc43)n2)cc1	-2.1	-53	78	i	1.1	-10	102
CCN(CC)S(=O)(=O)c1cccc(-c2nnc(-c3ccc(C)cc3)o2)c1	-1.6	11	89	i	0.71	-3	94
CC(Sc1nc(-c2ccccc2)cc(C(F)(F)F)n1)C(=O)Nc1sc2c(c1C#N)CCC2 (configuration not stated)	-2.7	21	75	i	0.93	-5	110
Cc1ccccc1OCC(O)CN(CCO)Cc1ccccc1 (configuration not stated)	nt	nt	nt	i	1.2	3	102
Cc1cc(F)c(F)cc1C(=O)N1CCCC1	nt	0	91	i	1	-5	93
FC(F)(F)c1cccc(Cc2noc(CN3CCCC(CN4CCCC4)C3)n2)c1 (configuration not stated)	nt	-20	119	i	0.86	0	106
Cc1noc(C)c1S(=O)(=O)N1CCCC(C(=O)N2CCN(C3CCCCC3)CC2)C1 (configuration not stated)	-1.0	nt	nt	nt	nt	-5	103
O=C(Nc1ccc(N2CCCCC2)cc1)c1cccnc1Cl	0.0	0	60	i	1	-5	105
O=C(CC(NC(=O)C(F)(F)F)c1ccccc1)Nc1nnc(CCc2ccccc2)s1 (configuration not stated)	1.3	23	141	i	1.1	2	98
COc1ccc(CNC(=O)NC(C)(C)c2cccc(C(C)(C)NC(=O)NCc3ccc(OC)cc3)c2)cc1	-1.9	-35	134	i	0.99	-6	120
COc1ccc(CN2CCNC(=O)C2CC(=O)NCc2cccc(C)n2)c(OC)c1 (configuration not stated)	nt	nt	nt	i	1.1	nt	97
CCOc1ccc(N(CC(=O)NC2CCCC2)C(=O)CCC(=O)Nc2ccccn2)cc1	-0.4	nt	nt	i	1	-13	95
O=c1cc(-c2cccs2)oc2ccc(Cl)cc12	-0.9	27	62	i	0.84	-5	103
Cc1ccc(NC(=O)COC(=O)Cn2cnc3c2c(=O)n(C)c(=O)n3C)cc1Cl	nt	nt	nt	i	0.94	-10	108
O=C(NCc1ccccc1)c1cc(-c2ccco2)on1	-0.8	nt	nt	i	1	-2	85
COc1ccc(CNC(=O)CSc2nc(-c3ccccc3)cc(-c3cccs3)c2C#N)cc1	-1.8	8	54	i	0.81	-6	105
CC(C)(C)C(=O)N1CCN(c2c(Cl)cccc2[N+](=O)[O-])CC1	-1.2	-35	99	i	0.83	6	99
CSc1ccccc1NC(=O)c1cnc2scc(C)n2c1=O	-0.4	-14	147	i	0.86	-1	101
CCCCn1c(SCC(=O)N2CCCCC2C)nc2cc(S(N)(=O)=O)ccc21 (configuration not stated)	-0.4	51	56	i	0.76	-6	104
CCOC(=O)CSc1nc2ccccc2n1CC(=O)N(C(C)C)C(C)C	1.1	nt	nt	i	1	5	111
CCOC(=O)c1ccc(NC(=O)C(C)N2C(=O)c3ccccc3C2=O)cc1 (configuration not stated)	-2.2	nt	nt	i	0.91	-8	94
CCCCOc1ccc(/C=N/NC(=O)C2CCCNC2=O)cc1 (configuration not stated)	nt	nt	nt	i	1.1	nt	106
Cc1ccccc1N(CC(=O)NCC1CCCO1)C(=O)C1(C)CC(=O)N=C2C=CC=CN21 (configuration not stated)	-1.5	4	70	i	1.1	-7	88
CCN(CC)C(=O)CSc1ncnc2c1nnn2-c1ccc(OC)cc1	-1.7	-9	100	i	0.96	0	98
COc1ccc(OC)c(N2C(=O)CC(C(C)c3ccccc3)C2=O)c1 (configuration not stated)	-0.9	-44	109	i	0.88	1	101
O=C(COc1ccccc1C(=O)Nc1ccccc1)NCCc1ccccc1	nt	nt	nt	i	0.91	-6	100
CC(C)(C)NC(=O)c1cc([N+](=O)[O-])ccc1N1CCCCC1	-1.8	nt	nt	i	1	-7	114
N#C/C(=C\c1cccnc1)C(=O)Nc1ccccc1	-0.5	57	62	i	1.1	-3	97
Cc1cc(NS(=O)(=O)c2ccc(NC(=O)c3ccc(Br)o3)cc2)nc(C)n1	nt	nt	nt	i	0.93	-7	96
O=C(OCc1cc(-c2ccccc2)no1)c1ccc2ccccc2n1	-1.4	nt	nt	i	0.88	-3	100
CCOc1ccccc1C(=O)Nc1ccccc1C(N)=O	-0.3	3	143	i	1	-2	90
CC(=O)Nc1ccccc1-c1nn[nH]n1	-2.4	-25	127	i	0.96	-8	97
Cc1noc(C)c1S(=O)(=O)N1CCC(C(=O)Nc2ccc(OC(F)(F)F)cc2)CC1	-0.8	-42	205	i	0.82	0	97
CC(=O)c1nnn(-c2nc(N3CCCC3)nc(N(c3ccccc3)c3ccccc3)n2)c1C	-1.8	19	146	i	0.85	-3	98
CCOc1ccc(-c2nnc(N(CC)C(=O)C3CCC3)s2)cc1	-0.2	19	75	i	0.95	-6	116
COC(=O)C1=C(C)N(Cc2ccccc2)C(=O)N[C@H]1c1ccc(Br)cc1	nt	nt	nt	i	0.93	nt	99
CC(Sc1nnnn1-c1ccc(Cl)cc1)C(=O)NCC(=O)Nc1ccc(F)c(F)c1F (configuration not stated)	-1.5	-47	92	i	1.1	-17	67
CCN1CCN(c2ncc(C(=O)N3CCN(c4ccccc4OC)CC3)c3ccccc23)CC1	-2.5	-100	117	nt	nt	-6	nt

Profiles, quoted from the list. Screens in order: GALR2 ag	INS promoter inh	INS promoter inh cell count	HSV augment	HSV augment primary fold	PKD1 inh	RGS16-Gao HTS
Entry for CCOc1ccc(N(CC(=O)NC2CCCC2)C(=O)CCC(=O)Nc2ccccn2)cc1 → -0.4	nt	nt	i	1	-13	95
Entry for O=C(NCc1ccccc1)c1cc(-c2ccco2)on1 → -0.8	nt	nt	i	1	-2	85
Entry for C=CCn1c(O)c(N=NC(=O)OCC)c2ccccc21 → -0.5	-13	248	i	0.89	2	107

Next records follow.
molecule	GALR2 ag	INS promoter inh	INS promoter inh cell count	HSV augment	HSV augment primary fold	PKD1 inh	RGS16-Gao HTS
Cn1c(-c2ccc(=O)[nH]c2)nc2ccccc21	nt	nt	nt	i	1	8	104
COc1cccc(NC(=O)c2csc3c2CCCC3)c1	nt	nt	nt	i	0.85	3	97
S=C(NC1CCCCC1)c1ccc2c(c1)OCO2	-2.9	29	147	i	0.75	-11	88
COc1cc(/C=N/NC(=O)Nc2ccccc2)ccc1OC(C)=O	-0.6	22	112	i	0.91	1	102
Cc1ccc(C(c2sc3ncnn3c2O)N2CCCCC2)cc1 (configuration not stated)	-2.1	nt	nt	i	0.88	1	98
Fc1cccc(-c2nnn3c2nc(Cl)c2ccccc23)c1	nt	nt	nt	i	0.67	-1	94
CS(=O)CSc1nc2c(cc1C#N)CCCC2 (configuration not stated)	-0.7	nt	nt	i	1	5	99
CCOC(=O)c1nnn2c1nc(N1CCN(C)CC1)c1ccccc12	nt	nt	nt	i	0.92	nt	100
Cc1ccc(C(=O)NC(=S)Nc2ccccc2N2CCCC2)cc1[N+](=O)[O-]	-0.9	0	101	i	0.89	-8	97
O=C1CC(C(=O)O)S/C(=N\NC(=O)c2ccc(F)cc2)N1 (configuration not stated)	0.8	0	145	i	0.88	-6	107
CS(=O)(=O)c1ccc(-c2nn[nH]n2)cc1	-2.9	7	64	i	0.96	7	109
CCN(CC)S(=O)(=O)c1ccc(/C=C/C(=O)Nc2ccc(Br)cc2F)cc1	-0.4	26	113	i	0.81	2	93
Cc1cc(C(=O)CSc2nnc(-c3cccs3)n2Cc2ccccc2)c(C)n1C	-0.4	-24	126	i	0.97	-4	105
COc1cc2c(-c3ccc(O)cc3)nc3c(c(C)nn3-c3ccccc3)c2cc1OC	2.3	21	107	i	0.55	1	468
COc1cc(OC)cc(C(=O)NCCn2ccc3ccccc32)c1	-1.8	nt	nt	i	0.95	-6	99
O=C(CN(CC1CCCO1)C(=O)CCC(=O)Nc1nccs1)NCC1CCCO1 (configuration not stated)	-1.8	8	129	i	1.1	-10	98
O=C(NC1(O)C(=O)c2ccccc2C1=O)c1ccccc1	-1.9	57	81	i	0.97	-2	92
Cc1ccc(Nc2nc(N)nc(CSc3nc4ccccc4s3)n2)cc1	-1.9	-20	90	nt	nt	0	108
CC(=O)Nc1ccc2nc(SCC(=O)N3CCOCC3)sc2c1	nt	nt	nt	i	0.93	-2	97
CCCSc1nnc(-c2c[nH]c3ccccc23)n1C	-2.1	nt	nt	i	1.1	1	104
CCN(CC)Cc1c(C(=O)OC(C)C)nnn1-c1nonc1N	-2.0	nt	nt	i	0.97	4	100
O=C(N/N=C/c1cccnc1)c1cccs1	nt	nt	nt	i	0.78	nt	95
Cc1ccc(C(=O)CSc2nnc(CNc3ccc(C)cc3C)o2)cc1	-1.9	-47	89	i	1.1	-10	122
Cc1cc(C(=O)CSc2nnnn2C)c(C)n1Cc1ccco1	nt	nt	nt	i	0.98	nt	102
CCOC(=O)c1ccc(NC(=O)C2CC(=O)Nc3nc4ccccc4n32)cc1 (configuration not stated)	nt	nt	nt	i	0.97	-3	76
CCC(C)/C(C)=N/NC(=O)c1ccccc1OCCOc1ccccc1 (configuration not stated)	nt	nt	nt	i	1	-1	108
COc1ccc(C(=O)N2CCC(n3c(C)nc4cc(F)ccc43)CC2)cc1	nt	nt	nt	i	1.1	-3	106
CCN(CC)S(=O)(=O)c1cccc(C(=O)OCC(=O)C23CC4CC(CC(C4)C2)C3)c1	-1.7	0	147	i	1	-3	103
Cc1cc(C)cc(OCC(=O)Nc2cccc(-c3nnc(-c4ccco4)o3)c2)c1	2.9	35	82	i	0.89	8	99
